# Screening results from PubChem BioAssay.
# D2 potentiator – potentiates the human D2 dopamine receptor allosterically; potentiation, % (test concentration not listed); DiscoveRx D2 beta-arrestin cells, luminescence, 90 min; 100% = 57 uM dopamine signal; P14416; 0.23% of 360,000 active; active = potentiation of 50% or more; inconclusive = 30% to 50%; inactive = 30% or less;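 further: compound concentration not given in the record; tested on top of an EC20 dose of dopamine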
#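 D2 cells co-treated with compound plus 50 nM dopamine (EC20) for 90 min at 37 deg C to detect potentiation. Beta-arrestin recruitment was read as enzyme-fragment luminescence after 1 h at ambient temperature. Full response was set by 57 uM dopamine.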
# TRPV1 potentiator – enhances activation of the human vanilloid receptor TRPV1; Q8NER1; TRPV1-expressing cells, Fluo-8 calcium influx, capsaicin EC20 potentiation; host cell line not named in the record; control for the full effect not named in the record; potentiation, % at 8.33 µM; 0.02% of 320,000 active; AID 540277; active means potentiation above 80%; inconclusive means 30% to 80%; inactive means below 30%; further: 0% is about no effect
#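 Fluo-8 calcium influx in TRPV1-expressing cells, kinetic read (ex 480/em 520 nm). Compound added and read 3 min for agonist activity, followed by capsaicin at EC20 final and 2 min further read for enhancement.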
# TRPML1 inh – inhibitors of human TRPML1 channel; activity change, negative = inhibition, % (no concentration beside the values); AID 624415; TRPML1-inducible cells, Ca2+ dye fluorescence, FDSS; active compounds read low; inhibition of EC80 agonist-evoked calcium signal; Q9GZU1; 0.02% of 390,000 active; in the data active means activity change below about -50%; inconclusive means about -30% to -50%; inactive means above about -30%;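 further: stimulus is agonist 54-4 at its EC80 concentration; on the % scale 0 is the no-effect control and ±100 the full control effect; compound concentration not given in the record; the text of the record puts the active cut at -80%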
#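 Calcium fluorescence in TRPML1-DL cells induced overnight with Tet: a 110 s read after compound pin addition, then a 110 s antagonist read after challenge with 54-4 at 4 uM final (EC80).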
# TRPML1 ag – agonists of human TRPML1 channel | Q9GZU1 | TRPML1-expressing cells, Ca2+ dye fluorescence, FDSS; host cell line not named in the record; reference of the full effect not given here | activation, % (no concentration beside the values) | 0.12% of 410,000 active | AID 624414; in the data active = activation above about 50%; inconclusive = about 30% to 50%; inactive = below about 30%; further: 0% is about no effect; the text of the record puts the active cut at 80%
#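 Calcium fluorescence on an FDSS kinetic reader gave the read-out. Tet-induced TRPML1-DL cells were plated overnight, dye-loaded (Ca8 with quencher, 45-90 min, room temperature, dark), then read 110 s after compound addition, and again 110 s after 4uM final 54-4 (EC80).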
# CtBP-E1A blk – inhibitors of CtBP/E1A interaction; 0.49% of 340,000 active; AlphaScreen GST-E1A/His-CtBP binding, 1536-well; active compounds read low; control for the full effect not named in the record; activity change, % (no concentration beside the values); in the data active means activity change below about -65%; inconclusive means about -30% to -65%; inactive means above about -30%; further: on the % scale 0 is the no-effect control and ±100 the full control effect
#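 In 5 uL wells, 23 nL compound meets equimolar GST-E1A and His-CtBP (5X stock 125 nM each) for 2 h, 37 °C. Beads (5X, 50 ug/mL) then 1 h, 37 °C, dark.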
# Six1-Eya2 inh – inhibitors of human Six1/Eya2 interaction; 0.56% of 360,000 active; activity change, % (concentration not given with the values); AlphaScreen GST-Six1/His-Eya2 binding, biochemical; active compounds read low; control for the full effect not named in the record; in the data active = activity change below about -65%; inconclusive = about -30% to -65%; inactive = above about -30%; further: on the % scale 0 is the no-effect control and ±100 the full control effect
# Target sequence (O00167 whole entry, looked up): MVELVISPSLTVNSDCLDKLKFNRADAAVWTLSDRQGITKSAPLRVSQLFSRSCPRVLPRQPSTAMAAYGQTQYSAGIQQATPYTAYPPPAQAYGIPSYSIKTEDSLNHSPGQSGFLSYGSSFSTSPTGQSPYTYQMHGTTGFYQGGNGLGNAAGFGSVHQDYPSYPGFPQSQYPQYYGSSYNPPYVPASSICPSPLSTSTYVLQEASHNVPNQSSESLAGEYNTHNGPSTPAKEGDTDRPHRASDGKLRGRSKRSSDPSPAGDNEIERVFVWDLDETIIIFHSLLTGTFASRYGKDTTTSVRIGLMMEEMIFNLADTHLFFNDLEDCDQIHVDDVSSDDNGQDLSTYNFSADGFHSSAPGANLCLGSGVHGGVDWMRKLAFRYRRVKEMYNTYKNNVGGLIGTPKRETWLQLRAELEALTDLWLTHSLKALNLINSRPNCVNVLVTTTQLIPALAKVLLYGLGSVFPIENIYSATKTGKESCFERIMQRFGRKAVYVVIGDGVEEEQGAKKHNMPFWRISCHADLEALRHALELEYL
# Target sequence (Q15475 whole entry, looked up): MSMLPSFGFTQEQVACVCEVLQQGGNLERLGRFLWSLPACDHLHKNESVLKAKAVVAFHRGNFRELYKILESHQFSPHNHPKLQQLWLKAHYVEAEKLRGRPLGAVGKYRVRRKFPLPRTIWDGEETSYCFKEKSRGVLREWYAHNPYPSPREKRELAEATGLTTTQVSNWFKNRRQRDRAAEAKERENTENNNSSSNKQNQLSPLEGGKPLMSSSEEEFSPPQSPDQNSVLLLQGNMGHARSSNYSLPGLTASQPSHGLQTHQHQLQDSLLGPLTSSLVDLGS
#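 Compounds are tested against tagged Six1 and Eya2 proteins bridged by glutathione donor and nickel acceptor beads; after a one-hour incubation at 37 °C without light, AlphaScreen emission is recorded.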
# * marks the source's active call; other numbers are inactive results; u = inconclusive; x = not tested or not shown.
SMILES	D2 potentiator	TRPV1 potentiator	TRPML1 inh	TRPML1 ag	CtBP-E1A blk	Six1-Eya2 inh
Cc1ccccc1C(=O)Nc1c(C)[nH]c(=O)[nH]c1=O	-3	-7	4	0.2	2	2
COC(=O)CN1C(=O)N/C(=C/c2cc(Cl)c(OC)c(OC)c2)C1=O	1	-14	12	0.6	-2	-5
COc1ccc(NC(=O)CSc2nc(N)c(NC(=O)c3cccs3)c(=O)[nH]2)cc1	-1	2	10	0.0	7	5
Cc1cccc(-n2ncc3c(NCc4ccc5c(c4)OCO5)ncnc32)c1	2	4	18	0.0	1	3
Cc1cc(=O)n2[nH]c(SCc3c(F)cccc3Cl)nc2n1	15	x	6	0.4	8	-4
O=C(Nc1cccc(Oc2ccc(C(=O)O)c(C(=O)O)c2)c1)c1ccc(-c2ccccc2)cc1	-2	-10	x	x	-9	-29
Cc1ccc(-c2nc3cnccn3c2Nc2ccc3c(c2)OCCO3)o1	8	-3	0	5.0	-9	-7
CC(C)NC(=S)N/N=C/c1ccc2c(c1)OCCO2	21	-6	4	-0.2	18	20
CC(C)(C)/C(O)=C/c1nc2cc(Cl)ccc2oc1=O	1	9	-22	0.3	-13	-7
COc1ccc(Cl)cc1NC(=O)c1ocnc1C	-13	-8	4	0.1	5	-1
CCc1ccc(C(=O)NNC(=S)Nc2ccc(S(N)(=O)=O)cc2)s1	-8	6	6	-1.0	x	-5
COc1cc(NC(=O)Nc2c(C)n(C)n(-c3ccccc3)c2=O)cc(OC)c1OC	-2	13	-13	0.0	4	4
Cc1cc(NC(=O)Cc2ccccc2)nc2c1c(=O)oc1ccccc12	-1	-1	-14	-0.7	3	-3
CCOc1ccc(-n2c(SCC(=O)Nc3ccc4c(c3)OCCO4)nc3c(c2=O)SCC3)cc1	-10	1	-8	2.8	-11	4
N#Cc1cnc2cc(-c3ccccc3)nn2c1N	-6	-2	-9	0.8	-4	-6
O=C(CC(SCCO)c1ccc(F)cc1)c1ccco1 (stereo unspecified)	-4	12	0	-0.9	-4	12
COc1cccc(NS(=O)(=O)c2ccc3[nH]cc(C(=O)NCCCOC(C)C)c(=O)c3c2)c1	7	8	-4	-0.5	-1	-2
COc1ccc(NC(=S)NC(=O)c2cncc(Br)c2)c(OC)c1	-5	-17	-20	-1.8	7	-2
CCOc1ccc(C(=O)Nc2ccccc2N2CCOCC2)cc1	12	-9	-23	-0.9	13	-1
CC(C)n1nnnc1SCC(=O)NNC(=O)C1CCCCC1	-15	0	-3	1.4	4	5

# Quoted from the listing:
# `CCOc1ccc(-n2c(SCC(=O)Nc3ccc4c(c3)OCCO4)nc3c(c2=O)SCC3)cc1` | TRPML1 inh: -8
# `CCOc1ccc(C(=O)Nc2ccccc2N2CCOCC2)cc1` | Six1-Eya2 inh: -1
# `Cc1cc(=O)n2[nH]c(SCc3c(F)cccc3Cl)nc2n1` | TRPML1 ag: 0.4
# `CC(C)n1nnnc1SCC(=O)NNC(=O)C1CCCCC1` | TRPML1 inh: -3
# `Cc1cccc(-n2ncc3c(NCc4ccc5c(c4)OCO5)ncnc32)c1` | TRPV1 potentiator: 4
# `N#Cc1cnc2cc(-c3ccccc3)nn2c1N` | TRPML1 inh: -9

# Other entries follow.
SMILES	D2 potentiator	TRPV1 potentiator	TRPML1 inh	TRPML1 ag	CtBP-E1A blk	Six1-Eya2 inh
O=C(NCc1ccccc1OC(F)(F)F)C1CCC(=O)N(CCc2ccccn2)C1 (stereo unspecified)	-4	x	29	0.0	-2	2
COC(=O)/C(C#N)=C/c1c[nH]c2ccccc12	5	7	4	1.3	-25	-23
CCCOc1ccc(NC(=O)CC2C(=O)N(CC)C(=S)N2Cc2cccs2)cc1 (stereo unspecified)	-15	18	-7	0.7	2	-2
O=C(NCc1ccco1)C12CN(Cc3ccccc3)CC1C(c1cccc([N+](=O)[O-])c1)=NO2 (stereo unspecified)	-7	11	42	0.8	u	-19
O=C(NC(=S)N1CCN(c2nc(-c3ccccc3)cs2)CC1)c1cncc(Br)c1	-17	12	-9	0.1	-18	-13
CC1(C(=O)NC2CCN(Cc3ccccc3)CC2)CCN1Cc1ccc2ccccc2c1 (stereo unspecified)	-13	x	x	-0.2	-18	-17
O=C(/C=C/c1ccc(F)cc1)Nc1ccc2[nH]c(=O)[nH]c2c1	-4	0	8	0.1	-11	0
COC(=O)c1ccc(/C=N/N2CCN(Cc3ccc(Cl)cc3)CC2)cc1	-5	-2	-6	0.5	-19	-6
CNC(=O)c1ccsc1NC(=O)c1sc2ccccc2c1Cl	-5	9	23	0.8	-10	0
CC1CCCCN1S(=O)(=O)c1ccc([N+](=O)[O-])cc1 (stereo unspecified)	13	-14	x	x	x	-1
O=C(c1cccnc1Nc1ccc2c(c1)CCC2)N1CCOCC1	-7	-7	19	-0.4	10	-1
O=C(NCc1ccccc1)/C(=C/c1ccco1)NC(=O)c1ccco1	-2	0	5	0.1	2	1
O=C(Nc1ccc2c(c1)C(=O)NC2=O)c1ccccc1	-3	4	-8	-0.8	-1	-8
CCOC(=O)C(C)OC(=O)C1=C(C)NC(=O)NC1c1ccc2c(c1)OCO2 (stereo unspecified)	-12	5	5	-0.4	11	-8
CC(=O)N(CCC1(C(C)C)CCOC(C)(C)C1)Cc1ccco1 (stereo unspecified)	7	14	-7	-0.7	12	3
C#CCN(C)CC/C=C1\c2ccccc2CSc2ccccc21	-12	-20	24	3.1	-13	-29
COc1cc(NS(=O)(=O)c2ccc(NC(=O)c3ccc(C)o3)cc2)nc(OC)n1	0	-15	-10	-0.1	-3	1
Cc1sc(NC(=O)CSc2nnc(-c3ccc(F)cc3)o2)c(C#N)c1C	1	3	2	1.3	-8	3
Cn1c(=S)c2[nH]c(SCC3CCCO3)nc2n(C)c1=O (stereo unspecified)	-12	x	17	1.8	-4	-1
COc1ccc2nc3c(c(-c4ccccc4)c2c1)CCC3	-5	-17	21	0.7	1	1

# (list continues)
SMILES	D2 potentiator	TRPV1 potentiator	TRPML1 inh	TRPML1 ag	CtBP-E1A blk	Six1-Eya2 inh
CCOc1ccc(S(=O)(=O)Nc2ccncc2)c(C)c1C	-11	30	14	0.1	-5	5
Cc1nn(Cc2cccc(Oc3ccccc3)c2)c(C)c1NC(=O)NC12CC3CC(CC(C3)C1)C2	-9	17	-2	0.5	-8	4
Cc1cc(C)cc(NC(=O)C2CCCN2C(=O)Oc2ccccc2)c1 (stereo unspecified)	-3	3	8	-0.1	-9	-15
Cc1oc2c(c(C)cc3oc(=O)c(CC(=O)N[C@@H](CCCNC(N)=O)C(=O)O)c(C)c32)c1C	-3	6	-9	-0.2	x	-12
Cn1c(O)c(N=NC(=O)Cn2c(C(F)(F)F)nc3ccccc32)c2ccccc21	-3	-1	-2	0.7	-2	-11
CCOc1ccc(-c2nc(C#N)c(N3CCCCCC3)o2)cc1	-6	-9	47	1.1	-23	u
CCCCC(=O)Nc1cccc(NC(=S)NC(C)=O)c1	-13	-1	45	1.3	1	-3
CN(C)/C=N/C(=S)Nc1ccc(Cl)c(Cl)c1	-8	9	-5	0.4	5	13
CC(C)n1c(CN(C)c2ccccc2)nc2ccccc21	-4	-3	-4	0.0	-1	1
COc1ccc(C(C(=O)NC2CCCCC2)N(C(=O)c2sc(C)nc2C)c2ccccc2)cc1 (stereo unspecified)	-12	-11	-3	-0.6	9	9
CCOc1cc(N2CCOCC2)c(OCC)cc1NC(=O)CN1C(=O)NC(CC(C)C)C1=O (stereo unspecified)	-8	u	-2	0.0	x	-2
CCOc1nc(NCCC2=CCCCC2)nc(N2CCOCC2)n1	0	-4	6	0.6	-12	-11
Cc1cc(-c2csc(NC(=O)c3ccc(S(=O)(=O)N(C)C)cc3)n2)c(C)n1-c1ccccc1	-18	-3	15	0.0	4	1
CC(=O)c1c(N2CCOCC2)nc(=O)n(-c2ccccc2)c1C	9	8	26	0.4	7	8
O=C1NCC(c2ccccc2)C1C(=O)N/N=C\c1ccc(-c2cccc(Cl)c2Cl)o1 (stereo unspecified)	-8	5	-12	0.9	0	-10
Cc1ccc(CCNC(=O)CNC(=O)c2cccs2)cc1	0	4	8	-1.1	-11	10
CC(C)(C)c1nnc(NC(=O)Cc2ccccc2[N+](=O)[O-])s1	-15	-9	-11	0.8	6	3
NCCOc1cnn(-c2ccccc2Cl)c(=O)c1Cl	-6	1	1	0.4	-5	5
CN(CCc1ccccc1)C(=O)c1ccc(NC(=O)Cc2cccc(NC(=O)C3CCN(C(=O)CCc4ccccc4)CC3)c2)cc1	-2	x	12	-0.1	-11	0
COc1cc2c(cc1OC)C(c1c(Cl)cccc1Cl)NC(=O)C2 (stereo unspecified)	1	-3	-6	-1.0	x	-2
CC(=O)Nc1nc2ccccc2n1CCOc1ccccc1Cl	-35	-8	-1	-0.1	0	19
CN(Cc1ccccc1F)C(=O)CCCNC(=O)c1ccc(Cl)cc1	-2	-20	12	1.1	1	1

# Five of the entries above in order of their number in CtBP-E1A blk, smallest number first:
molecule	CtBP-E1A blk
COC(=O)c1ccc(/C=N/N2CCN(Cc3ccc(Cl)cc3)CC2)cc1	-19
CC1(C(=O)NC2CCN(Cc3ccccc3)CC2)CCN1Cc1ccc2ccccc2c1 (stereo unspecified)	-18
Cc1ccc(CCNC(=O)CNC(=O)c2cccs2)cc1	-11
Cn1c(O)c(N=NC(=O)Cn2c(C(F)(F)F)nc3ccccc32)c2ccccc21	-2
Cc1cc(-c2csc(NC(=O)c3ccc(S(=O)(=O)N(C)C)cc3)n2)c(C)n1-c1ccccc1	4

# Entries of single compounds from above:
# Cc1cc(-c2csc(NC(=O)c3ccc(S(=O)(=O)N(C)C)cc3)n2)c(C)n1-c1ccccc1 reads D2 potentiator: -18; TRPV1 potentiator: -3; TRPML1 inh: 15; TRPML1 ag: 0.0; CtBP-E1A blk: 4; Six1-Eya2 inh: 1
# CCOc1ccc(-c2nc(C#N)c(N3CCCCCC3)o2)cc1 reads D2 potentiator: -6; TRPV1 potentiator: -9; TRPML1 inh: 47; TRPML1 ag: 1.1; CtBP-E1A blk: -23; Six1-Eya2 inh: u
